CSC inhib = cancer stem cell viability inhibitors, primary screen, luminescence; cancer stem cell-like cells viability; inhibition, % at 7.5 µM; AID 2717, 2010; 1.1% of 300,000 active;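 active means mean at 75% or more and at least half the replicates too; inconclusive means mean and replicates disagree; tested in HMLE shEcad cells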;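 further: 0% = median of negative and 100% = median of positive control wells; the first replicate is given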
MT1-MMP act inh = blockers of MT1-MMP proenzyme processing, primary screen, HT1080 RFP-PRO-GFP cells, GFP/RFP fluorescence; 0.061% of 360,000 active; GFP/RFP ratio change, % at 20 µM; AID 651647, 2012; Matrix metalloproteinase-14 (Homo sapiens), P50281; GFP/RFP ratio fluorescence, overnight; percent of plate control window, DMSO zero;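 active means GFP/RFP ratio change of at least 30% with cell ATP level not reduced by more than half and red fluorescence within 50% of control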; further: strong numbers were not always called active
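Assay system: HT1080 RFP-PRO-GFP cells. Benchmarks: DMSO vehicle wells and RFP-L50D-GFP reporter cell wells. Times: overnight cell settling, then overnight compound exposure, 37 °C, 5% CO2. Compound: 20 µM single dose, 1% DMSO. Read-out basis: GFP/RFP fluorescence ratio.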
HIV Env fusion = inhibitors of HIV-1 Env-driven cell-cell fusion, primary screen, HeLa-JRFL effector, CEM21 target cells, luciferase; AID 651610, 2012; inhibition, % at 12.3 µM; 1.1% of 360,000 active;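 active means mean replicate inhibition score of at least 50 and every replicate individually at or above 50; inconclusive means only one of the two criteria met; inactive means mean below 50 and not all replicates reaching 50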;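 further: 0% = plate neutral controls and 100% = maraviroc near 300 nM; one replicate is shown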
Rce1 inh = yeast Rce1p protease inhibitors, primary screen, biochemical, fluorescence, cell-free homogeneous. CAAX prenyl protease 2 (Saccharomyces cerevisiae (strain ATCC 204508 / S288c)), Q03530. yeast membranes, quenched prenylated peptide cleavage fluorescence. calls only. 0.27% of 290,000 active;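 active means fall in fluorescence gain of 50% or more versus controls, with final raw signal at or below 3038400; inconclusive means same 50% fall but final raw signal above 3038400; inactive means fall in fluorescence gain under 50%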;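 further: plate controls were neutral control wells for no effect and wells lacking membranes for full effect; tested at 10 µM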
Target sequence (Q03530 whole entry, looked up): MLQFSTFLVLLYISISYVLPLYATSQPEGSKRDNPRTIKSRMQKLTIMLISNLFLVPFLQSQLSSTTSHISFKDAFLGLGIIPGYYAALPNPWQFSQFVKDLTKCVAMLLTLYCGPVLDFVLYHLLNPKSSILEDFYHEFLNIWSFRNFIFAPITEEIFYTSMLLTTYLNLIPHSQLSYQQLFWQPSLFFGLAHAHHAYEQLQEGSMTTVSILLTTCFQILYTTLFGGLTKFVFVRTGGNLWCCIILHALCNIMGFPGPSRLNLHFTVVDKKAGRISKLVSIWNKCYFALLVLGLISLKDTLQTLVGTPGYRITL
eIF4H FP inh = human eIF4H binding inhibitors, primary screen, translation initiation inhibitor project, biochemical, uHTS, fluorescence polarization; eIF4H fluorescence polarization binding assay; Eukaryotic translation initiation factor 4H (Homo sapiens), Q15056; inhibition, % at 35 µM; 0.94% of 290,000 active;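 active means 50% or more with normal probe brightness, or confirmed in later tests; inconclusive means above 50% with abnormal brightness, or retests that disagree; inactive means below 50% or failed in later tests; about a fifth of its hits are not listed in these tables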;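 further: calls also rest on retests at 20 µM and on dose response follow-up; 0% = protein and probe with vehicle and 100% = probe without protein; strong numbers were not always called active; many hits fall short of the cut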
PABP FP inh = PABP poly(A) RNA binding inhibitors, primary screen, biochemical, fluorescence polarization, uHTS. inhibition, % at 35 µM. 1% of 290,000 active. AID 2014, 2009;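 active means 50% or more with normal probe brightness, or confirmed in later tests; inconclusive means above 50% with abnormal brightness, or retests that disagree; inactive means below 50% or failed in later tests; about a fifth of its hits are not listed in these tables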;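 further: calls also rest on retests at 20 µM and on dose response follow-up; controls were probe without protein and protein plus probe with vehicle; some compounds called inactive have numbers as strong as hits; many hits fall short of the cut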
UUG fidelity = modulators of yeast start codon fidelity, primary screen, whole organism, S. cerevisiae, single point, plate reader | activity score, % at 18.7 µM | S. cerevisiae UUG-firefly luciferase reporter, luminescence/redox ratio | 0.13% of 350,000 active | AID 602363, 2012;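 active means replicate mean at a twofold rise or more, about +100% in these data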;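 further: firefly luciferase made from a UUG start codon reports start codon fidelity; reporter light over untreated wells divided by growth signal over untreated wells; some hits fall short of that in this replicate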
MT1-MMP act inh RFP = second read-out of MT1-MMP act inh, no call of its own (marks repeat the call); RFP signal change, %; measured here: RFP expression control read;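 0 = vehicle wells; hits needed this value within 50% of zero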
* hit, by the source's call; i = inactive; ? = inconclusive; · = no result given.

Under each structure – UUG fidelity, PABP FP inh, HIV Env fusion, eIF4H FP inh, MT1-MMP act inh, Rce1 inh, CSC inhib, MT1-MMP act inh RFP
(1) COc1ccc(CC(NC(C)=O)C(=O)NC2CCN(S(=O)(=O)c3ccc(NC(C)=O)cc3)CC2)c(OC)c1 (stereo not given)
    -36, 4, 1, -13, 2, i, -11, 3
(2) CCc1nnc(SCc2cccc(F)c2)nc1CC
    -4, ·, -5, ·, 1, i, 7, 0
(3) N#Cc1ccccc1OCC(=O)NCC1(N2CCCCC2)CCCCC1
    ·, -9, 4, 2, -4, i, -16, 1
(4) CC(C)[C@H](NC(=O)OCc1ccccc1)C(=O)OCC(=O)N1CCN(c2ccccc2)CC1
    -5, ·, -16, ·, 2, i, -12, -3
(5) COc1ccc(NC(=O)CCCCC#Cc2ccccc2)cc1
    3, ·, -4, ·, -2, i, 13, -2
(6) CC(C)=CCC[C@](C)(O[C@@H]1O[C@H](CO[C@@H]2OC[C@@H](O)[C@H](O)[C@H]2O)[C@@H](O)[C@H](O)[C@H]1O)C1CC[C@]2(C)C1[C@H](O)CC1[C@@]3(C)CC[C@H](O[C@@H]4O[C@H](CO)[C@@H](O)[C@H](O)[C@H]4O)C(C)(C)C3CC[C@]12C (stereo not given in full)
    17, ·, -35, ·, 2, ·, ·, 2
(7) Cc1ccc(C(=O)OCC(=O)NCc2ccccc2)s1
    1, ·, 1, ·, -2, ·, ·, 0
(8) COc1ccc(-c2ccc(CCC(=O)O)n2CC(=O)Nc2ccccc2C)cc1
    -14, -10, -7, -3, 0, i, ·, 1
(9) Cc1ccc(Cn2cc(S(=O)(=O)c3ccc(Cl)cc3)c(=O)c3cc(F)ccc32)cc1
    ·, -16, -21, 8, -2, i, ·, -7
(10) C1CCN=C(Nc2nn[nH]n2)CC1
    ·, 19, -2, 1, -3, i, 0, 4
(11) CC1CC2OC(=O)C3(C)CCCC(C)(C23)C1(O)CCc1ccoc1 (stereo not given)
    ·, 6, 11, 5, 4, i, 8, 6
(12) Cc1ccc(OC(C)C(=O)Nc2cc(C)on2)cc1 (stereo not given)
    -15, -1, -9, 12, -2, i, -4, 1
(13) COc1ccccc1OCCn1cc(/C=N/NC(=O)c2ccncc2)c2ccccc21
    -28, 4, 20, -6, 0, ·, -5, -11
(14) COc1ccc([C@@H]2CC=C(C(=O)O)[C@H](c3ccc(F)cc3)N2S(=O)(=O)c2ccc(Cl)cc2)cc1
    5, ·, -6, ·, -1, ·, 2, 3
(15) O=C(COc1ccccc1)NCC(=O)N/N=C/c1ccc(O)cc1O
    ·, 1, 9, 12, 8, i, 44, 1
(16) COc1ccccc1NC(=O)CN1CCN(CC(=O)Nc2ccc(Cl)c(C(F)(F)F)c2)CC1
    -14, -4, ·, -8, 1, ·, ·, -13
(17) CCCCc1nnc(NC(=O)CCS(=O)(=O)c2ccc(Cl)cc2)s1
    -7, ·, ·, ·, -4, ·, 2, -5
(18) COc1ccccc1/C=N/Nc1cc(C)nc(N2CCOCC2)n1
    -8, 16, 2, -9, 3, i, -4, 6
(19) NS(=O)(=O)c1ccc(CNC(=O)C(c2ccccc2)c2ccccc2)cc1
    -11, 4, 2, 2, 1, i, 40, -4
(20) O=C(NC(=S)Nc1ccccc1[N+](=O)[O-])c1cncc(Br)c1
    -15, 12, -2, 4, 0, i, -4, -7

3 of the entries above in order of their number in HIV Env fusion, largest number first:
No. | structure | HIV Env fusion
18 | COc1ccccc1/C=N/Nc1cc(C)nc(N2CCOCC2)n1 | 2
14 | COc1ccc([C@@H]2CC=C(C(=O)O)[C@H](c3ccc(F)cc3)N2S(=O)(=O)c2ccc(Cl)cc2)cc1 | -6
6 | CC(C)=CCC[C@](C)(O[C@@H]1O[C@H](CO[C@@H]2OC[C@@H](O)[C@H](O)[C@H]2O)[C@@H](O)[C@H](O)[C@H]1O)C1CC[C@]2(C)C1[C@H](O)CC1[C@@]3(C)CC[C@H](O[C@@H]4O[C@H](CO)[C@@H](O)[C@H](O)[C@H]4O)C(C)(C)C3CC[C@]12C (stereo not given in full) | -35

Following part
Under each structure – UUG fidelity, PABP FP inh, HIV Env fusion, eIF4H FP inh, MT1-MMP act inh, Rce1 inh, CSC inhib, MT1-MMP act inh RFP
(21) O=C(OCCc1cc2ccccc2c(=O)o1)c1ccc(F)cc1
    -9, ·, -18, ·, 2, ·, 9, 1
(22) COC(=O)c1c(NC(=O)CCC(=O)O)sc(Cc2ccccc2)c1C
    6, 0, 14, -7, -4, i, -7, 0
(23) COc1ccccc1CNC(=O)Cn1nc(C)c([N+](=O)[O-])c1C
    -14, ·, 4, ·, -4, i, -15, -2
(24) O=[N+]([O-])c1ccccc1/C=N/Nc1nc(N2CCCC2)nc(N2CCCC2)n1
    -27, 4, 2, 3, 3, i, -3, -3
(25) O=C(O)c1cc(S(=O)(=O)Nc2ccc3cn[nH]c3c2)ccc1O
    -23, ·, -14, ·, -1, ·, ·, 4
(26) CCN1C(=O)[C@@H]2[C@@H](c3ccc(-c4ccc(C(C)=O)cc4)c(OC)c3)N3CCC[C@@]3(C(=O)OC)[C@@H]2C1=O
    -9, ·, -19, ·, -3, ·, 8, 0
(27) COc1ccc(-c2cc(=O)oc3cc(OCC(=O)NCc4ccccn4)ccc23)cc1
    -21, 1, ·, 3, 0, i, 11, -2
(28) Cc1ccc(C(=O)N/C(=C/c2ccco2)C(=O)NCCc2c[nH]c3ccccc23)cc1C
    0, -2, ·, -16, -2, i, -1, 5
(29) Cc1cc(C)cc(OCC(=O)Nc2ccc3c(c2)OCO3)c1
    ·, -10, 3, -10, 0, ·, ·, 1
(30) CC(C)c1c(O)c2c(n(-c3ccccc3)c1=O)CCCC2
    ·, -2, -4, 8, 14, i, -5, 6
(31) CN(C)c1ccc(S(=O)(=O)N2CCCCC2)cc1NC(=O)C1=COCCO1
    -7, -7, 10, 4, -1, i, 6, 0
(32) Cc1ccccc1N(C)C(=O)c1coc(=O)c2ccccc12
    -11, -7, -2, -3, -7, i, -3, -11
(33) COc1cc2[nH]c(=S)n(CC3CCCO3)c(=O)c2cc1OC (stereo not given)
    -9, -6, ·, -2, 9, i, 1, 0
(34) CC(=O)c1cccc(NC(=S)N2CCC(Cc3ccccc3)CC2)c1
    ·, ?, -12, -1, 0, ·, -11, 0
(35) COC(=O)c1ccc(Cl)c(NC(=O)CN(c2ccc(OC)cc2)S(=O)(=O)c2ccccc2)c1
    -19, ·, ·, ·, -1, i, -5, -6
(36) O=C(CSc1nnc(-c2ccc(S(=O)(=O)N3CCOCC3)cc2)o1)c1ccccc1F
    -2, 7, -32, -1, 6, i, ·, 10
(37) CCOc1ccc(NC(=O)COC(=O)CC2CCCCC2)cc1
    -5, ·, -12, ·, 6, ·, ·, 6
(38) COc1ccc(NC(=O)C[C@H]2C(=O)N(C3CCCCC3)C[C@@H]2C)cc1
    5, ·, -6, ·, 3, ·, ·, 6
(39) CCc1noc(C)c1C(=O)NCCN1C(=O)S/C(=C\c2ccccc2F)C1=O
    -18, ·, -3, ·, 0, ·, ·, -4
(40) COc1cccc(CC(=O)Nc2nc(-c3cc(OC)ccc3OC)cs2)c1
    ·, -14, -1, -11, -10, i, -11, -8

One compound at a time, as listed above. Values in the order: UUG fidelity	PABP FP inh	HIV Env fusion	eIF4H FP inh	MT1-MMP act inh	Rce1 inh	CSC inhib	MT1-MMP act inh RFP
`COc1cc2[nH]c(=S)n(CC3CCCO3)c(=O)c2cc1OC` (stereo not given) as listed: -9	-6	·	-2	9	i	1	0
`CCN1C(=O)[C@@H]2[C@@H](c3ccc(-c4ccc(C(C)=O)cc4)c(OC)c3)N3CCC[C@@]3(C(=O)OC)[C@@H]2C1=O` as listed: -9	·	-19	·	-3	·	8	0
`CCc1noc(C)c1C(=O)NCCN1C(=O)S/C(=C\c2ccccc2F)C1=O` as listed: -18	·	-3	·	0	·	·	-4
`CC(=O)c1cccc(NC(=S)N2CCC(Cc3ccccc3)CC2)c1` as listed: ·	?	-12	-1	0	·	-11	0
`COc1ccccc1CNC(=O)Cn1nc(C)c([N+](=O)[O-])c1C` as listed: -14	·	4	·	-4	i	-15	-2

Other compounds follow:
Under each structure – UUG fidelity, PABP FP inh, HIV Env fusion, eIF4H FP inh, MT1-MMP act inh, Rce1 inh, CSC inhib, MT1-MMP act inh RFP
(41) CN1CCN(C(=O)C2CCCN(S(=O)(=O)c3ccc(F)cc3)C2)CC1 (stereo not given)
    ·, 6, -3, 20, -1, i, 13, -1
(42) Cc1cccc(Nc2nc(-c3ccc(O)cc3O)cs2)n1
    -9, 7, -440, -8, 2, ·, 97*, 2
(43) O=C1CN(C(=O)COC(=O)c2cccc(Br)c2)c2ccccc2N1
    -11, ·, -12, ·, 8, ·, -16, 5
(44) C[C@H](CO)N1C[C@H](C)[C@@H](CN(C)Cc2ccc(C(=O)O)cc2)OCc2cnnn2CCCC1=O
    -1, ·, 24, ·, 5, ·, ·, 7
(45) O=C(NCc1ccccc1)c1ccc(NS(=O)(=O)c2cccs2)cc1
    ·, ·, -4, ·, 6, ·, 8, 5
(46) CCCCCCCCNc1nc(Cl)nc(NCc2ccco2)n1
    ·, -10, -15, -3, -3, i, -1, 2
(47) Cc1nn(Cc2ccccc2Cl)c(C)c1N
    -41, -6, ·, 2, 2, i, -2, 1
(48) O=C(Nc1ccc(S(=O)(=O)N2CCOCC2)cc1)C1CC1
    -23, 0, -5, 1, 1, i, ·, 4
(49) COc1ccc(CN2CC(=O)N(c3cc(Cl)ccc3OC)C2=S)cc1OC
    -6, -3, -1, -3, -7, i, 0, -8
(50) O=C(CCN1CCN(Cc2ccccc2)CC1)NNC(=O)c1ccc(Cl)c(Cl)c1
    3, ·, -15, ·, 5, ·, ·, 4
(51) O=C(CSc1cccc2cccnc12)N/N=C/c1ccncc1
    ·, -2, 6, -5, 1, i, ·, 1
(52) CN1CCN(c2ccc(C(=O)c3cn(-c4ccc(F)c(Cl)c4)nn3)cc2)CC1
    -2, -7, -2, -5, 3, i, 70, 1
(53) COc1ccc(Cl)cc1C(=O)NNC(=O)CSc1nncn1C
    -8, ·, ·, ·, 3, ·, -11, 2
(54) O=C(CN1CCN(S(=O)(=O)c2ccc3ccccc3c2)CC1)NC(=O)NC1CCCCC1
    -6, -2, ·, -6, 2, i, -9, -7
(55) Cc1ccc(-n2ncc3c(=O)[nH]c(SCC(=O)N4CCCC4)nc32)cc1C
    -2, 4, -15, -1, -4, i, -11, -7
(56) COc1ccccc1N1CCN(C(=O)c2ccc3[nH]c4c(c3c2)CC(C)CC4)CC1 (stereo not given)
    ·, 0, -141, -1, -4, i, 50, -9
(57) Cc1nn(-c2ccccc2)c(C)c1/C=N/NC(=O)c1cc(C(C)(C)C)[nH]n1
    -5, -13, ·, -5, 11, i, 3, 10
(58) CCOC(=O)C1=C(C)c2ccccc2OC1C(=O)OCC (stereo not given)
    -9, ·, -18, ·, 3, ·, ·, -2
(59) CCOC(=O)c1cccc(NC2c3ccccc3C(=O)N2Cc2ccco2)c1 (stereo not given)
    -4, -2, 25, -6, 10, i, -5, -22
(60) CC(C)(C)OC(=O)N1CCC[C@H]1C(=O)N/N=C/c1ccc2nccnc2c1
    ·, 3, 0, -1, -2, i, 5, 1

Compound activity (PubChem)

Only part of the results is shown; rates above refer to the full screens.
